Bioassay records deposited in PubChem BioAssay by National Center for Advancing Translational Sciences (NCATS).
VACV Venus inh: vaccinia inhibition (Venus reporter) | AID 720580 | actives 0.46% (n = 330,000) | Potency, µM (top dose mostly 36.5 µM), inactives show at the highest dose activity change, negative = inhibition, hits mostly inhibitors | Vaccinia virus Venus reporter expression, fluorescence; active means well fitted inhibition curve with a large enough effect; inconclusive means small, poorly fitted or top-dose-only effect; inactive means no such curve, though single readings can be large or run the other way; tested in A549 cells; further: nearly all actives have a fitted effect of over 30% in size; inactives centre near -10
VACV mCherry inh: vaccinia inhibition (mCherry reporter). actives 0.63% (n = 310,000). Vaccinia virus mCherry reporter infection, fluorescence; about a quarter of the inactives have no number. Potency, µM (series often up to 36.5 µM), without a hit: at the top dose activity change, negative = inhibition, actives largely listed as inhibitors. AID 720579; active = well fitted inhibition curve with a large enough effect; inconclusive = small, poorly fitted or top-dose-only effect; inactive = no such curve, though single readings can be large or run the other way; tested in A549 cells; further: nearly all actives have a fitted effect of over 35% in size; inactives centre near -10
An asterisk follows results filed as active; i = inactive; ? = inconclusive; nt = no result given; & = joins results of further samples; [ ] = another dose, or the depositor's remark. On the % scale 0 is the no-effect control and ±100 the full control effect; potency means the concentration at half of the fitted maximal effect.

Each structure is followed by: VACV Venus inh, VACV mCherry inh
- CCOC(=O)C1(CCCc2ccccc2)CCN(Cc2cn(CC)nc2C)CC1
  -22%, -2%
- CCn1c(N2CCN(C(=S)NCCc3ccccc3)CC2)nc2ccccc21
  -15%, -20%
- O=C(c1ccccc1)c1ccc(OCCn2cnc3ccccc3c2=O)cc1
  -25%, -30%
- CCn1cc(C(=O)NC(C)c2ccccc2)c(=O)c2cc(S(=O)(=O)N3CCc4ccccc4C3)ccc21 (configuration not stated)
  -19%, -19%
- COC(=O)C1=C(C)NC(=O)C1(NS(=O)(=O)c1ccc(NC(C)=O)cc1)C(F)(F)F (configuration not stated)
  -6%, -11%
- COc1ccc(OC)c(/C=N/NC(=O)CNC(=O)c2cccc3ccccc23)c1
  -16%, i
- O=C(O)c1cccc2cccnc12
  -5%, -13%
- Cc1nc(-c2ccc(F)cc2)c(CC(=O)N2CCN(S(=O)(=O)c3ccc(F)cc3)CC2)s1
  -26%, ?
- CC(=O)c1ccc(S(=O)(=O)N2CCCCC2C(=O)O)cc1 (configuration not stated)
  -9%, -14%
- COc1cc(/C=N/NC(=O)/C(=C/c2ccccc2)CCO)ccc1O
  -11%, -13%
- CCCCNC(=O)CCn1nc(-c2ccc(Cl)cc2)ccc1=O
  -14%, i
- COc1ccc(C(=O)N2CCN(CCNC(=O)C(=O)Nc3ccc(Br)cc3)CC2)cc1
  ?, -19%
- Cn1ccc(CC(=O)N2CCC(N3CCC(C(=O)N4CCCC4)CC3)CC2)c1
  -7%, -2%
- Cc1ccc2nc(NC(=O)C3CSC4(C)CCC(=O)N34)sc2c1 (configuration not stated)
  -20%, -15%
- CCCC1C(=O)N(Cc2ccccc2)C(=O)CC1C (configuration not stated)
  -12%, i
- COc1ccc(C2CC(=O)N(Cc3ccc(C)cc3)c3c2c(C)nn3-c2nc(C)cc(C)n2)c(OC)c1 (configuration not stated)
  -3%, -6%
- COc1ccccc1OCC(=O)Nc1nc2c(s1)CC(C)CC2 (configuration not stated)
  -23%, i
- NNC(=O)c1ccc(COc2cccc3ccccc23)cc1
  -2%, -21%
- CN1CCN(CC#CCC(O)(c2ccccc2)c2ccccc2)CC1
  -9%, i
- C=CCC[C@@H](Cc1ccc(F)cc1)C(=O)OC[C@@H](NC(=O)[C@H](CC=C)CC(=O)N(CCO)Cc1ccccc1)c1ccccc1
  ?, ?
- CCCn1cnc2scc(-c3ccc(OC)cc3)c2c1=O
  -21%, -5%
- CCO[C@@H]1OC(C(=O)N2CCN(Cc3ccc4c(c3)OCO4)CC2)=C[C@H](C2CCCCC2)[C@H]1CCCO
  ?, -3%
- CCOC(=O)c1c(C)oc2ncnc(Nc3ccc(OCC)cc3)c12
  -9%, -2%
- COc1ccc(S(=O)(=O)N(C)[C@H]2C[C@H]3c4cc(Oc5ccccc5C)ccc4CCN3C(=O)[C@H]2[C@H](C)O)cc1
  ?, ?
- CC(C)(C)N1[C@@H](CC(=O)O)c2cc(C(F)(F)F)ccc2S1(=O)=O
  -9%&-18%, -7%
- Cc1ccc(/C=C2/NC(=O)N(Cc3ccc(Br)cc3)C2=O)o1
  13%, i
- Cc1ccc(S(=O)(=O)N2CCC(C(=O)OCC(=O)N(C)Cc3ccccc3)CC2)cc1C
  -7%, -7%
- O=C(CN1CCCC1)NCC1(c2ccccc2)CCOCC1
  -10%, -6%
- O=C(c1ccco1)N(Cc1cccs1)c1ccc(O)cc1
  -21%, 14%
- CC(NC(=O)C(=O)NCCN1CCN(C(=O)c2ccc([N+](=O)[O-])cc2)CC1)c1ccccc1 (configuration not stated)
  -3%, -21%
- CC(C)c1nnc(NC(=O)c2cccc(-n3cnnn3)c2)s1
  -4%, nt
- CC1CCN(C(CC(=O)c2ccccc2)C(=O)c2ccccc2)CC1 (configuration not stated)
  22%, -4%
- Cc1ccc(NC(=O)C2Cc3ccccc3CN2C(=O)c2ccco2)cc1S(=O)(=O)N(C)C (configuration not stated)
  -4%, i
- Cn1c(SCC(=O)C(C)(C)C)nnc1-c1ccc(F)cc1
  -2%, i
- COc1ccc(OC)c(C2=NS(=O)(=O)N(C)C(C(=O)Nc3ccc(F)cc3F)=C2)c1
  ?, ?
- COc1ccc(C(=O)NC2(C(F)(F)F)NC(=O)N(CCCc3ccccc3)C2=O)cc1OC (configuration not stated)
  -25%, ?
- CCN(CC)C(=O)CSc1nnc([C@H](CCSC)NC(=O)OC(C)(C)C)o1
  -12%, nt
- COc1ccc(Nc2nnc(-c3ccc(C)c(S(=O)(=O)NCCO)c3)c3ccccc23)cc1C(N)=O
  -7%, -4%
- O=C(CSc1nnc(Cc2cccs2)n1-c1ccc(Cl)cc1)NCc1ccc2c(c1)OCO2
  -5%, -21%
- Cc1nc(SCC(=O)NC2CCCCC2C)c(C#N)c(C)c1C (configuration not stated)
  -12%, i
- Cc1c(Cc2ccccc2)c(=O)oc2cc(OC(=O)c3ccccc3)ccc12
  -21%, -13%
- CC[C@]12c3[nH]c4ccc(OC)cc4c3CCN1C(=O)C(CC(=O)NCC13CC4CC(CC(C4)C1)C3)C[C@@H]2C(=O)N1CCN(C(=O)c2ccco2)CC1 (some centres not stated)
  0%, -7%
- C#CCOCCOCCOCCNc1nc(N2CCN(C(=O)[C@H](Cc3ccc(O)cc3)n3cc([C@@H](N)C(C)CC)nn3)CC2)nc(N2CCN(C(=O)[C@H](Cc3cc4ccccc4[nH]3)n3cc([C@@H](N)CC(C)C)nn3)CC2)n1 (some centres not stated)
  3%, -12%
- CCc1ccc(NC(=O)c2ccc(NC(=O)C3CCCO3)cc2)cc1 (configuration not stated)
  -9%, -11%
- C=C(C(=O)O)c1ccc2ccccc2c1
  -3%, 12%
- CC(=O)NS(=O)(=O)c1ccc(NC(=S)NC(=O)COc2ccccc2C)cc1
  -13%, -15%
- Cc1ccc(C(=O)NCc2cccnc2)cc1S(=O)(=O)N1CCCCCC1
  -9%, i
- O=C1C(c2ccnc3ccccc23)=C(O)c2ccccc21
  -4%, nt
- Cc1ccc(S(=O)(=O)Oc2ccc(C3C4=C(CCCC4=O)N(CCC(=O)O)C4=C3C(=O)CCC4)cc2Cl)cc1
  -6%, -21%
- CCOc1ccccc1CNC(=O)C1CCN(S(=O)(=O)N2CCC(C)CC2)CC1
  -19%, -1%
- COc1ccc(Cc2nc(C(=O)Nc3ccccc3)cs2)cc1
  -15%, -12%
- CCN(CC)C1CCN(C(=O)c2cc(COc3cccc4cccnc34)on2)C1 (configuration not stated)
  -10%, i
- COC(CNc1cc(=O)oc2ccccc12)OC
  -5%, -7%
- O=C(CCN1C(=O)c2ccccc2S1(=O)=O)NCc1ccccc1
  -1%, i
- CCCCn1c(N)c(N(CC(C)C)C(=O)C2=NN(c3cc(C)ccc3C)C(=O)CC2)c(=O)[nH]c1=O
  -15%, -12%
- O=c1nc(N/N=C/c2c[nH]c3ccccc23)cn[nH]1
  -17%, -27%
- Cc1ccc(NC(=O)c2noc(C(C)C)c2[N+](=O)[O-])cc1
  -1%, i
- COc1ccc(CCNC(=O)c2cc3sc(Cl)cc3n2C)cc1OC
  -10%, i
- CC1C(=O)OC2O[C@]3(C)CC[C@H]4C(C)CCC1[C@]24OO3 (some centres not stated)
  -12%, -1%
- COc1ccc(NC(=O)COc2ccccc2C)cc1S(=O)(=O)N1CCCCC1
  -24%, -17%

The list goes on.
Each structure is followed by: VACV Venus inh, VACV mCherry inh
- N#CCSc1nnc(-c2c[nH]c3ccccc23)o1
  -12%, -3%
- CN(CC(=O)Nc1ccccc1Cl)C(=O)COC(=O)C1CC1
  -8%, -21%
- Cn1c(C(=O)N2CCCC(C(=O)N3CCN(c4ccccc4)CC3)C2)cc2sccc21 (configuration not stated)
  -2%, -13%
- COC(=O)Cn1nnc(-c2cccc(OC)c2)n1
  -4%, i
- COc1ccccc1NS(=O)(=O)c1cc(NC(C)=O)ccc1N1CCCCC1
  -17%, -13%
- COC(=O)C[C@H]1C[C@H]2c3cc(NC(=O)C4CCOCC4)ccc3O[C@H]2[C@H](CO)O1
  -5%, -21%
- CCn1c(CSCc2c(Cl)cccc2Cl)n[nH]c1=S
  -5%, -6%
- O=C1C=C(c2ccc3c(c2)OCO3)C[C@@H](c2ccc3c(c2)OCO3)C1
  -20%, i
- COc1ccc(-c2nc(NC(=O)Cn3ccc(C(F)(F)F)n3)sc2C)cc1
  ?, nt
- CCOC(=O)c1sc(=NC(=O)c2cccc(OC)c2)n(C)c1C
  -6%, -10%
- O=C(NCCc1nnc2n1CCN(Cc1ccccn1)CC2)c1ccc(F)cc1
  -6%, -8%
- COc1ccc(S(=O)(=O)N(CC(=O)Nc2cc(Cl)ccc2C)Cc2ccccc2)cc1OC
  -2%, -10%
- OCCCc1cn(Cc2ccccc2)c2ccccc12
  -3%, -20%
- COc1cccc(C(=O)Nc2cccnc2)c1
  5%, -4%
- Cc1cccc(OCc2nnc(SCC(=O)Nc3ccc(C)c(C)c3)o2)c1
  ?, ?
- C=CCn1c(O)c(CN2CCOCC2)c(C)c(C#N)c1=O
  7%, nt
- COc1ccc(CCNC(=O)CCCCCn2c(=O)[nH]c3cc(OC)c(OC)cc3c2=O)cc1OC
  -3%, -14%
- Nc1nc(-c2ccccc2)c(N=Nc2cccnc2)s1
  -10%, -11%
- COc1ccc(CCNC(=S)NC(=O)c2cc(OC)c(OC)c(OC)c2)cc1OC
  -12%, -7%
- CCOc1ccccc1NC(=O)CSc1nnc(CNC(=O)c2c(F)cccc2Cl)o1
  1%, -2%
- CCOC(=O)N1CCN(C2OC(=O)c3ccccc32)CC1 (configuration not stated)
  -12%, -9%
- COc1cccc(-c2csc(N3CCN(C(=S)NCC(C)C)CC3)n2)c1
  -17%, -27%
- O=C(CSCc1ccc(C(=O)O)cc1)Nc1ccc2ccccc2c1
  -1%, -5%
- Cn1cc(S(=O)(=O)N2CCCC2)cc1C(=O)NCc1ccccc1
  ?, ?
- Cc1ccc(-c2nn(C)c(=O)c3ccccc23)cc1CN1CCCCC1
  11%, 6%
- Cc1ccc2c(c1)C1CN(C)CCC1N2Sc1ccccc1[N+](=O)[O-] (configuration not stated)
  -4%, ?
- CCOC(=O)N1CCC(=NNC(=O)c2ccc(O)cc2)CC1
  -2%, -6%
- COc1ccc(OC)c(NC(=O)C(Cc2ccccc2)NS(=O)(=O)c2ccc3c(c2)CCC(=O)N3)c1 (configuration not stated)
  -6%, -4%
- CCCCN(Cc1ccccc1)c1ncnc2nc[nH]c12
  -21%, -14%
- COc1ccc(S(=O)(=O)N2CCN(CCC(=O)Nc3ccc(F)cc3)CC2)cc1
  -16%, 5%

Gathered by group: those above with a thiophene ring, fused or not (5)
Each structure is followed by: VACV Venus inh, VACV mCherry inh
- CCCn1cnc2scc(-c3ccc(OC)cc3)c2c1=O
  -21%, -5%
- O=C(c1ccco1)N(Cc1cccs1)c1ccc(O)cc1
  -21%, 14%
- O=C(CSc1nnc(Cc2cccs2)n1-c1ccc(Cl)cc1)NCc1ccc2c(c1)OCO2
  -5%, -21%
- COc1ccc(CCNC(=O)c2cc3sc(Cl)cc3n2C)cc1OC
  -10%, i
- Cn1c(C(=O)N2CCCC(C(=O)N3CCN(c4ccccc4)CC3)C2)cc2sccc21 (configuration not stated)
  -2%, -13%

Next section:
Each structure is followed by: VACV Venus inh, VACV mCherry inh
- COc1ccccc1-c1cc(C(=O)Nc2ccc(F)cc2F)no1
  -24%, -32%
- COc1ccc(NC(=O)Cn2c(=O)n(Cc3nc(C)no3)c(=O)c3cc4c(cc32)OCO4)cc1
  -8%, -2%
- COc1ccc(NC(=O)C2CCN(S(=O)(=O)c3ccc4[nH]c(=O)ccc4c3)CC2)c(OC)c1
  -4%, -8%
- O=S(=O)(c1ccc(-c2ccon2)s1)N1CCOCC1
  -10%[7.34 µM], i[7.34 µM]
- CCCCn1c(N)c(N(CC(C)C)C(=O)c2ccc(-n3c(C)ccc3C)cc2)c(=O)[nH]c1=O
  -11%, i
- CCn1c(C)nc2cc(S(=O)(=O)Nc3ccc(C)cc3)ccc21
  -12%, i
- Nc1cc2c(cc1Br)[nH]c(=O)c1ccccc12
  ?, ?
- N#C/C(=C\c1cccs1)c1nc2ccccc2[nH]1
  -13%, -6%
- CCCCCCCCN1C(=O)[C@H](CC(=O)N2CCOCC2)C[C@@]2(C(=O)OCC)CCCC=C12
  -14%, 1%
- CC(NCC(=O)NCC(=O)Nc1ccc(F)cc1)c1cccc(C(F)(F)F)c1 (configuration not stated)
  -16%, -8%
- COCC(=O)NCCNc1nc2ccc(C)cc2cc1C
  -14%, -23%
- COc1ccc(Br)cc1CNC(=O)c1cc2ccccn2n1
  -11%, -15%
- Oc1ccc2nnc3c(Br)cnn3c2c1
  -19%, i
- COc1ccc(NC(=S)Nc2ncccc2C)cc1OC
  -3%, -7%
- Cc1nc2ccccc2n1CC(=O)N/N=C/c1cccs1
  -9%, -8%
- Cc1ccc(C(=O)N[C@H](C(=O)Nc2cccc(S(=O)(=O)N3CCOCC3)c2)C(C)C)cc1
  -13%, i
- COc1ccc(-c2nn3c(=O)cc(CN4CCN(C(=O)/C=C/c5ccccc5)CC4)nc3s2)cc1
  1%, -6%
- CC(C)N1CC2(CC(c3ccccc3C(F)(F)F)=NO2)CN1C(=O)c1ccc(C(C)(C)C)cc1 (configuration not stated)
  -16%, i
- Cc1ccc(CN2CC(C(=O)N3CCN(S(=O)(=O)c4ccc(C)cc4C)CC3)CC2=O)cc1 (configuration not stated)
  -26%, -3%
- COc1cc(/C=N/NC(=O)Cn2c([N+](=O)[O-])cnc2C)ccc1OC(=O)N(C)C
  -1%, i
- COc1ccc2nc(-c3ccccc3)nc(SC)c2c1
  ?, -12%
